# Bioassay records: PubChem BioAssay, several laboratories
# Mtb H37Rv: M. tuberculosis H37Rv growth inhibitors, H37Rv strain (AID 1626); M. tuberculosis H37Rv growth inhibition; higher % means a stronger effect; inhibition, % at 10 µM, or IC50 in µM where a hit was titrated; hit rate 0.95% among 220,000;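 active = confirmed in a dose series; inconclusive = inhibition above 80% but not taken into the dose series; inactive = below 80% or under 30% at every dose of the series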;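 also: bacteria incubated seven days before Alamar blue readout; 0% = bacteria only wells and 100% = bacteria with antibiotic wells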
# RecA splice inh: Mtb RecA intein splicing inhibitors, primary screen, biochemical, fluorescence, HTS; hit rate 0.75% among 290,000; Protein RecA (Mycobacterium tuberculosis (strain ATCC 25618 / H37Rv)), P9WHJ3; cell-free RecA intein splicing; inhibition, %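 (about 9 µM by stock and volumes)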; in the data active = inhibition above about 30%; inconclusive = no clear call, values can overlap the other calls;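 also: 0% = vehicle wells and 100% = reference inhibitor control wells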
# Target sequence (P9WHJ3 whole entry, looked up, canonical isoform): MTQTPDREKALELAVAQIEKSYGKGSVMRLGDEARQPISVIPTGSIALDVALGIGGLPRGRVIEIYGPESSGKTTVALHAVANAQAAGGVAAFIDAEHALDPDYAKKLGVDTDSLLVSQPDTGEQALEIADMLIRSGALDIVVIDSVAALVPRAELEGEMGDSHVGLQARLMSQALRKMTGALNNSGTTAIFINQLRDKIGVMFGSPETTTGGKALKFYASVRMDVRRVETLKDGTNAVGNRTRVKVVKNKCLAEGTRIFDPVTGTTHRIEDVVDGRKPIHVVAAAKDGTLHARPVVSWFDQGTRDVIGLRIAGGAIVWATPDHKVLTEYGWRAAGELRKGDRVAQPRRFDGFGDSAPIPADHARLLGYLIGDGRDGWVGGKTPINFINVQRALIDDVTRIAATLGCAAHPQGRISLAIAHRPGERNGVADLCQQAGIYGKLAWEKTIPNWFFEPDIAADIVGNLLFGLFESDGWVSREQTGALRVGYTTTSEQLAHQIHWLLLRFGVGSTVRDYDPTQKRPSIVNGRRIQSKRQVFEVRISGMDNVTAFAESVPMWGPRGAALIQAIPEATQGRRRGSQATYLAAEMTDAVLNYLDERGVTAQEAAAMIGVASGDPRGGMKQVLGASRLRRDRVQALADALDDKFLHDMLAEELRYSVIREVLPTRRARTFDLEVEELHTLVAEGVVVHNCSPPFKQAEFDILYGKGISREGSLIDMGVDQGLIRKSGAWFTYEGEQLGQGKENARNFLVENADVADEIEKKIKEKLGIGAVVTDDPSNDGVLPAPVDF
# Mtb bLac sens: beta-lactam sensitization of Mtb H37Rv, H37Rv; M. tuberculosis H37Rv growth with meropenem, percent inhibition; hits of this screen are not shown here; inhibition, % at 25 µM; hit rate 0.27% among 330,000; AID 434955, 2010;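 active = about 74% or more and at least 40 points above the plate without the antibiotic, then above 30% in a dose series; inconclusive = first-round hits that could not be retested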;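 also: growth measured after seven days incubation then overnight dye step; 0% = bacteria only wells and 100% = bacteria with antibiotic; twin plates without the antibiotic show which effects depend on it; some results filed as inactive read as strong as hits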
# Arbovirus inh: antivirals against arbovirus infection, primary screen, cell-based, full library, 10K replicate subset | arbovirus infection cell-based antiviral screen | inhibition, % at 10 µM | hit rate 0.37% among 200,000 | AID 1251, 2008;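 active = inhibition from about 30%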;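 also: bluetongue infection of BSR cells; cell survival read as ATP light after 72 h; 0% = infected wells without compound and 100% = uninfected wells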
# YopH PTP inh: YopH tyrosine phosphatase inhibitors, primary screen, biochemical, fluorescence Ex485/Em525; AID 898, 2007; inhibition, %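 (about 10 µM by stock and volumes)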; hit rate 0.16% among 140,000;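 active = inhibition of 50% or more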;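 also: controls were vehicle for no effect and minimum signal wells for full effect; inactives centre near -20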
# Arbovirus inh repeat: further read-out of Arbovirus inh, marked with its call; inhibition, %; measured here: 10K subset replicate screen; many hits read low in the repeat;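 first of two repeat runs on a subset; 0% = infected and 100% = uninfected wells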
# The depositor's hits bear a star; ? = inconclusive; . = no result given. A portion of the library; rates above refer to the full screens.
SMILES,Mtb H37Rv,RecA splice inh,Mtb bLac sens,Arbovirus inh,YopH PTP inh,others
Cc1ccc(NC(=O)c2ccc(S(=O)(=O)NCc3ccco3)cc2)nc1,.,-0.9,-3.2,.,.,
CC(=O)Oc1ccc(OC(C)=O)c(SCCCCCN2CCOCC2)c1,-9.3%,-2.6,-11.7,-29.6,39.9,
COc1cc2c(c(OC)c1OC)C(=O)CC2,-1.4%,-1.3,-1.6,.,.,
C=CCOc1ccc(/C(O)=C2/C(=O)C(=O)N(CCN3CCOCC3)C2c2ccc(C)cc2)cc1 (stereo not given),-7.6%,-0.9,-2.2,7.4,-36.0,
CCOc1ccc(NC(=O)CSc2nc3ccccc3c(=O)n2CCCC(=O)N2CCCC2)cc1,-4.9%,-0.9,?,-5.6,-41.5,
CCN(CC)CCCn1c2c(c(SCC(=O)Nc3cc(C)on3)nc1=O)CCC2,.,-1.5,-1.0,.,.,
Cc1c(C=O)c(C=O)c(C)n1Cc1ccccc1,13.6%,-4.0,.,2.5,-14.6,
Cc1[nH]nc(SCC(=O)NCC(C)C)c1[N+](=O)[O-],1.0%,-2.4,-6.4,6.2,.,
COc1ccc(Cc2nc3ccccc3n2CC(=O)N/N=C/c2ccccc2)cc1OC,5.0%,2.9,5.0,1.9,-10.9,
O=C(c1ccc2c(=O)n3c(nc2c1)CCCCC3)N1CCN(C(c2ccccc2)c2ccccc2)CC1,9.1%,16.5,.,-33.9,10.1,
O=C(COc1ccccc1)N=C1SC2CS(=O)(=O)CC2N1c1ccc(F)cc1 (stereo not given),.,-2.6,-11.3,.,.,
Cn1c(=O)[nH]c(=O)c2c1nc(SCC(N)=O)n2Cc1cccc(Br)c1,.,2.4,0.9,.,.,
O=C(CCSCc1ccc(Cl)cc1)NCc1cccs1,64.9%,9.2,52.9,-0.9,.,
CN1CCCN(C(=O)C2CCC(C(=O)N3CCCN(C)CC3)CC2)CC1 (stereo not given),-2.0%,-1.1,4.6,-2.4,.,
COc1ccc(-c2csc3ncnc(N4CCN(c5ccccc5O)CC4)c23)cc1,.,17.2,4.0,.,.,
COc1cc(OC)cc(C(=O)Nc2cc(C)nn2-c2ccccc2)c1,.,0.8,-1.6,.,.,
O=C(O)c1ccc(N2C(=O)CC(SC(=Nc3ccccc3)Nc3ccccc3)C2=O)cc1 (stereo not given),1.3%,-0.9,8.5,0.6,-32.3,
Cc1ccc(Oc2nc(-c3cccnc3)nc3ccccc23)c([N+](=O)[O-])n1,7.0%,7.7,-10.1,22.4,.,
COc1ccc(C(=O)N(CN2CCCC2=O)c2ccccc2OC)cc1OC,-4.3%,0.8,0.0,-4.0,-11.7,
COc1ccc(C(C#N)N2N=C(C)CC2c2ccccc2)cc1 (stereo not given),.,0.7,0.7,.,.,
Cc1[nH]c2ccc(-c3n[nH]c(=S)n3-c3ccccc3)cc2c1C,4.7%,-0.4,5.8,-5.4,-22.7,
C=CCSc1nnc(NC(=O)CN2C(=O)NC3(CCCC3)C2=O)s1,.,-2.5,-10.5,.,.,
CCN(CC)c1ccc(NC(=O)COC(=O)CSc2ccc(Br)cc2C)cc1,-4.9%,2.8,1.8,6.7,-25.2,
Cc1cc(NC(=O)CCSc2nc(-c3ccco3)cc(C(F)(F)F)n2)no1,-2.3%,-0.4,-3.3,-12.0,-8.5,
COc1c(F)c(F)c(C(=O)Nc2ccc(NC(=O)Cc3ccccc3)cc2)c(F)c1F,5.3%,-7.7,3.0,-13.8,.,
C#Cc1ccc([C@@H]2C=C(C(=O)NCc3ccccc3)O[C@H](OCc3ccc(CO)cc3)C2)cc1,.,11.1,-4.5,-4.2,.,
Cc1ccc(S(=O)(=O)N(C)C)cc1NC(=O)COC(=O)c1ccc2c(c1)NC(=O)CS2,-0.2%,0.6,-5.9,.,.,
COc1ccc(NC(=O)c2cc(OC)c(OC)c(OC)c2)cn1,1.3%,-2.1,-6.1,-0.5,31.8,
CCOc1c(Br)cc(C2NC(=O)CCC2[N+](=O)[O-])cc1OC (stereo not given),.,-0.4,4.9,.,.,
COc1ccc(NC(=S)N2CCN(Cc3cccc(F)c3)CC2)c(OC)c1,-5.2%,1.7,3.4,4.1,.,
COc1ccc(C(=O)NC2CCN(C(=S)Nc3cc(C)ccc3C)CC2)cc1,2.4%,-0.2,0.8,-6.9,-20.6,
Nc1nc(Nc2cccc(Cl)c2)n[nH]1,-4.8%,-2.6,11.6,.,.,
Cc1nc(N2CCN(Cc3ccccc3)CC2)[nH]c(=O)c1C,3.8%,-7.9,-1.0,.,-23.5,
Cn1nc(C(=O)N2CCN(S(=O)(=O)c3ccccc3)CC2)c2ccccc2c1=O,2.5%,-1.9,0.0,3.4,-47.0,
Cc1cc(COc2ccccc2O)on1,3.3%,-2.4,-5.1,5.9,-73.2,
O=C(CN1CCN(S(=O)(=O)c2ccc(Br)cc2)CC1)N/N=C/c1cc([N+](=O)[O-])ccc1Cl,.,5.2,2.0,1.6,-18.9,
CC(C)(C)c1ccc(-n2ncc3c2CCCC3NC(=O)CN2CCOC2=O)cc1 (stereo not given),.,-0.1,7.7,.,.,
Cc1ccccc1-n1c(=O)c2c(n3cnnc13)-c1ccccc1CC21CCCCC1,1.1%,3.2,4.2,4.5,-26.4,
O=C(c1cccc(F)c1)N1CCCC(C(=O)N2CCCCC2)C1 (stereo not given),.,-1.6,-11.6,.,.,
CC(C)NC(=O)N(Cc1ccccc1)Cc1cccs1,-1.1%,-5.9,-14.3,.,.,
Cc1ccc(S(=O)(=O)Nc2ccc3c(c2)nc(C)n3C)cc1,2.7%,1.2,-3.1,.,.,
O=C(/C=C/c1cccc(O)c1)c1cccnc1,53.2%,-0.4,76.8,-0.5,.,
CCN1CCCC1CN(Cc1cc2cc(OC)ccc2[nH]c1=O)C(=O)NCc1ccccc1 (stereo not given),1.3%,0.1,-2.5,8.5,-5.5,
O=C(NCCc1ccccc1)c1cccc(Br)c1,.,-0.5,0.9,.,.,
O=C(Nc1cccc(Cl)c1)Nc1csc([N+](=O)[O-])c1,.,-3.9,62.2,.,.,

# Among those listed so far, 5 have fluorine.
SMILES,Mtb H37Rv,RecA splice inh,Mtb bLac sens,Arbovirus inh,YopH PTP inh,others
O=C(COc1ccccc1)N=C1SC2CS(=O)(=O)CC2N1c1ccc(F)cc1 (stereo not given),.,-2.6,-11.3,.,.,
Cc1cc(NC(=O)CCSc2nc(-c3ccco3)cc(C(F)(F)F)n2)no1,-2.3%,-0.4,-3.3,-12.0,-8.5,
COc1c(F)c(F)c(C(=O)Nc2ccc(NC(=O)Cc3ccccc3)cc2)c(F)c1F,5.3%,-7.7,3.0,-13.8,.,
COc1ccc(NC(=S)N2CCN(Cc3cccc(F)c3)CC2)c(OC)c1,-5.2%,1.7,3.4,4.1,.,
O=C(c1cccc(F)c1)N1CCCC(C(=O)N2CCCCC2)C1 (stereo not given),.,-1.6,-11.6,.,.,

# Going on with the list:
SMILES,Mtb H37Rv,RecA splice inh,Mtb bLac sens,Arbovirus inh,YopH PTP inh,others
O=C(Nc1ccccn1)c1ccc2c(c1)OCO2,0.8%,-2.0,-5.5,-6.0,.,
C=CCOC(=O)C(C#N)c1nc2ccccc2nc1N1CCN(c2ccccc2OCC)CC1 (stereo not given),10.5%,6.7,2.8,4.0,5.1,
Cc1cc(NCc2ccccn2)nc2ccccc12,-11.0%,-1.9,-2.8,-2.3,-3.5,
CN1C(N)=NC(=O)/C1=C/c1ccc(F)cc1,-2.6%,0.4,4.8,.,.,
CCN(C(=O)COC(=O)c1cc([N+](=O)[O-])ccc1N1CCOCC1)C1CCS(=O)(=O)C1 (stereo not given),.,2.0,0.5,.,.,
CC1CN(S(=O)(=O)c2ccc(C(=O)Nc3sc4c(c3C(N)=O)CCN(C)C4)cc2)CC(C)O1 (stereo not given),-5.6%,.,.,-10.2,-22.8,Arbovirus inh repeat=-3.9
CC(C)(CNC(=O)c1ccc(S(=O)(=O)N2CCCC2)cc1)N1CCOCC1,4.8%,-1.9,-5.5,-1.1,.,
COc1ccc(C2C3=C(Nc4ncnn42)c2ccccc2CCC3)cc1 (stereo not given),5.8%,2.6,3.3,11.9,-36.4,Arbovirus inh repeat=0.2
CC1CCCN(C(=S)NCCc2ccccc2)C1 (stereo not given),-0.7%,-1.0,-1.6,5.4,0.1,
Cc1ccc(-n2ncc3c(NNC(=O)c4cccs4)ncnc32)cc1,-3.9%,-0.5,4.1,3.8,.,
C1CCC(NC2=NCCC2)CC1,5.2%,-0.5,-3.9,2.6,-0.1,
COC(=O)c1oc2c(c1C)C(=O)CCC2,-4.1%,1.5,-3.1,.,.,
O=C(CN1C2=NCCN2c2ccccc21)c1ccco1,-13.0%,.,-1.0,-0.5,3.9,
CCNC(=O)CSc1nnc(CN2CCCCCC2=O)n1-c1ccccn1,-13.0%,0.1,1.9,4.7,.,
Cc1ccn(CCC(=O)O)n1,0.1%,-4.7,6.9,1.5,.,
O=C(O)C1CCN(C(=O)c2csc(-c3ccc4c(c3)CCO4)n2)CC1,-10.3%,-2.1,-3.3,.,.,
CCN(CC)c1ccc(NC(=O)Nc2ccc(C(C)=O)cc2)cc1,-0.7%,-3.5,-0.4,-5.8,-23.9,
CC(C)(C)Cc1nnc(NC(=O)Cc2ccc([N+](=O)[O-])cc2)s1,-1.4%,-3.9,-5.6,9.8,-4.4,
CCOC(=O)c1ccc(CNC(=O)c2cc(C(C)(C)C)oc2C)o1,-10.6%,-2.0,-8.1,10.6,-41.2,
O=c1nc(SCc2c(F)cccc2Cl)nc(-c2ccccc2)[nH]1,4.2%,-1.1,-5.6,.,.,
CCOC(=O)c1sc(NS(=O)(=O)c2ccccc2Cl)nc1C,-6.0%,-0.3,-14.0,-1.1,-17.5,
COCC(=O)Nc1nnc(COc2ccccc2)s1,9.5%,0.6,-1.1,1.1,13.2,
CS(=O)(=O)c1nc(-c2ccccc2)cc(C(F)(F)F)n1,.,65.9*,98.3,-44.4,-28.5,
COc1ccc(C2CC(=O)N3C(=C2C#N)SCC3(O)c2ccccc2)cc1 (stereo not given),7µM*,3.3,99.8,-18.2,-46.2,
CC1=NN(C(=O)Cc2ccc([N+](=O)[O-])cc2)C(O)(c2cccnc2)C1 (stereo not given),-4.8%,0.5,0.7,-7.7,-11.9,
CCN(CC)S(=O)(=O)c1ccc(N2CCOCC2)c(NC(=O)c2cc([N+](=O)[O-])ccc2Cl)c1,3.3%,1.4,0.8,2.0,.,
CC(=O)c1ccc(N2CCN(C(=O)c3cccs3)CC2)c(F)c1,.,3.4,-1.7,.,.,
Cc1cccc(N2CCN(C(=O)CCCn3c(=S)[nH]c4cc5c(cc4c3=O)OCO5)CC2)c1C,.,2.2,95.3,12.4,-29.5,
Cc1nn(C(C)(C)C)c(OC(=O)c2cccs2)c1Sc1ccccc1,-1.1%,3.4,-7.0,7.1,-6.1,
N#Cc1ccccc1S(=O)(=O)N1CCN(CC(=O)NC(=O)NC2CCCCC2)CC1,.,-5.0,-1.7,.,.,
Cc1ccnc(NC(=O)c2cc3ccccc3o2)c1,.,-8.5,66.1,.,.,
CC(C)C[C@H](NC(=O)Nc1cccc(Br)c1)C(=O)O,-1.2%,0.2,-6.5,-7.3,-11.6,
O=C(/C=C/c1ccc(Cl)cc1)N1CCN(c2ccccn2)CC1,3.9%,-0.5,3.4,-6.9,-9.1,
CC(C)(C)NCC(O)COc1c(F)cc(Br)cc1F (stereo not given),-3.6%,-1.0,-10.8,2.5,-15.8,
CCOc1ccc(NC(=O)CSc2nc(-c3cccs3)cc(C(F)(F)F)n2)c([N+](=O)[O-])c1,-2.5%,-0.9,-1.2,8.6,-15.6,
O=C(c1cccc(S(=O)(=O)N2CCc3ccccc3C2)c1)N1CCN(c2ccccc2)CC1,6.5%,5.1,-8.8,-11.3,-17.2,
COc1ccc(C2=CSC3=NCCN23)cc1[N+](=O)[O-],.,-4.4,2.8,.,.,
O=C(CN1CCC(NC(=O)Nc2ccc(F)cc2)CC1)Nc1ccccc1[N+](=O)[O-],.,3.4,51.9,.,.,
COc1ccc(S(=O)(=O)CC(=O)Nc2ccccc2Cl)cc1,4.4%,-2.2,-3.9,0.7,.,
COC(=O)c1cc(OC)c(OC)cc1NC(=O)CSc1ccc(C)cc1,-6.3%,-0.1,-0.5,-6.0,-1.8,
Cc1nc(SCc2ccc([N+](=O)[O-])cc2)n[nH]1,.,0.0,4.2,.,.,
CC(=C1C(=O)c2ccccc2C1=O)N1CCc2ccccc2C1,-9.3%,2.5,4.8,5.4,22.0,
